Screening results (PubChem BioAssay)
Abeta yeast res: restores growth of yeast expressing A-beta42 peptide; yeast expressing A-beta42, growth rescue, OD600, 48 h; response scale: 0% DMSO, 100% iron-clioquinol control; actives 0.063% (n = 410,000); Potency, µM (doses to about 46.1 µM), inactives show at the highest dose growth rescue, hits mostly activators; AID 1347071; note: nearly all actives have a fitted effect of over 55% in size
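Yeast A-beta toxicity model in growth medium with pinned compounds, 48 h at 30 C; growth read as absorbance at 600 nm. Normalized to FeCl3/clioquinol equimolar mix (positive) and DMSO (negative).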
aSyn yeast inh: alpha-synuclein toxicity inhibition in yeast; actives 0.14% (n = 370,000); Potency, µM (highest dose often 46.1 µM), for the others: at the top dose growth rescue (activation), hits mostly activators; AID 652106; Yeast expressing alpha-synuclein, growth rescue, BacTiter-Glo, 24 h; note: % of control where 0% means no effect; nearly all actives have a fitted effect of over 65% in size
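Readout is rescue of growth in alpha-synuclein-expressing yeast, so inhibitors of toxicity appear as activators. Growth after 24 hr at 30 deg C in galactose medium is quantified by luminescence.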
TDP43 rescue: TDP-43 toxicity inhibition in yeast. TDP-43 expressing yeast growth rescue, BacTiter-Glo, 24 h. Potency, µM (doses to about 46.1 µM), inactives show at the highest dose growth rescue (activation), usual class: activators. actives 1.8% (n = 410,000). AID 652104; note: % of control where 0% means no effect; nearly all actives have a fitted effect of over 50% in size
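Luminescence from BacTiter-Glo reports growth of TDP-43-expressing yeast after 24 hr at 30 deg C with compound. Cells were raffinose-pregrown to mid-log, then seeded in galactose medium at OD600=0.02.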
FUS suppressor: rescues growth of FUS-expressing yeast; S. cerevisiae FUS-expressing, growth rescue, OD600, 24 h; Potency, µM (top dose mostly 76.6 µM), for inactives: at the highest dose growth rescue (activation), hits mostly activators; actives 0.24% (n = 390,000); AID 1347120;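 note: plate controls were DMSO vehicle for no effect and reference control for full effect; nearly all actives have a fitted effect of over 55% in size; some results filed as inactive show a strong effect at the top dose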
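Steps: raffinose overnight preculture; dilution to OD 0.005 in 2% galactose minimal medium; compound addition (concentration series); 24hr at 30C, 99% humidity; absorbance read at 600 nm.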
Active calls of the source: *; ? = inconclusive; & = joins results of further samples. Calls come from the whole dose curve; as a rule, active = well fitted curve in the direction sought with a large enough effect; inconclusive = small, poorly fitted or top-dose-only effect, or another doubt; inactive = no such curve, though single readings can be large; an effect the other way counts as inactive or inconclusive. Potency is the fitted concentration of half-maximal effect. A portion of the library (hit frequency here may not be typical).

A first look (five entries):
Fields: FUS suppressor, Abeta yeast res, aSyn yeast inh, TDP43 rescue
1. C[C@H]1COc2cc(N3CCN(C)CC3)ccc2S(=O)(=O)N1
→ -8%, -14%, 7%, 7%
2. CC[C@H]1C2C[C@H]3[C@@H]4N(C)c5ccccc5C45C[C@H](C2[C@H]5O)N3[C@@H]1O (stereo partly drawn)
→ -34%, -4%, 8%, 0%
3. COc1ccc(C(CN(C)C)C2(O)CCCCC2)cc1 (stereo not drawn)
→ -28%, -2%, -10%&1%, 3%
4. C[C@]12CCC(=O)C=C1C=C[C@@H]1[C@@H]2CC[C@@]2(C)[C@H]1CC[C@@]2(O)CCC(=O)O
→ -21%, -15%, 1%, 27%
5. Cn1c(=O)c2[nH]cnc2n(C)c1=O
→ -45%, 3%, -11%&3%&-2%, ?

This part in full (from the top)
Fields: FUS suppressor, Abeta yeast res, aSyn yeast inh, TDP43 rescue
1. C[C@H]1COc2cc(N3CCN(C)CC3)ccc2S(=O)(=O)N1
→ -8%, -14%, 7%, 7%
2. CC[C@H]1C2C[C@H]3[C@@H]4N(C)c5ccccc5C45C[C@H](C2[C@H]5O)N3[C@@H]1O (stereo partly drawn)
→ -34%, -4%, 8%, 0%
3. COc1ccc(C(CN(C)C)C2(O)CCCCC2)cc1 (stereo not drawn)
→ -28%, -2%, -10%&1%, 3%
4. C[C@]12CCC(=O)C=C1C=C[C@@H]1[C@@H]2CC[C@@]2(C)[C@H]1CC[C@@]2(O)CCC(=O)O
→ -21%, -15%, 1%, 27%
5. Cn1c(=O)c2[nH]cnc2n(C)c1=O
→ -45%, 3%, -11%&3%&-2%, ?
6. C(=NC12CN3CN(CN(C3)C1)C2)c1cccnc1
→ 21%, 5%, 0%, 19%
7. CCCN1CCC[C@@H](c2cccc(O)c2)C1
→ -32%, -11%, 1%&10%, 17%
8. O=c1[nH]oc2c1CCNC2
→ -22%, -28%, -15%&-2%, -10%
9. CN1CCN(Cc2ccc(Br)s2)CC1
→ -17%, 8%, -1%, -2%
10. CCCN(CCC)C1CCc2cccc(O)c2C1 (stereo not drawn)
→ 1%, -16%, -8%&-5%, 6%

Just FUS suppressor and TDP43 rescue, for some of the entries so far:
| entry | structure | FUS suppressor | TDP43 rescue |
| --- | --- | --- | --- |
| 7 | CCCN1CCC[C@@H](c2cccc(O)c2)C1 | -32% | 17% |
| 8 | O=c1[nH]oc2c1CCNC2 | -22% | -10% |

Down the list, from the results shown:
FUS suppressor, nos. 3 to 10, in order: -28%, -21%, -45%, 21%, -32%, -22%, -17%, 1%
